Assay outcomes as filed in PubChem.
ClpP mod: qHTS Assay for Activators of ClpP; ATP-dependent Clp protease proteolytic subunit (Bacillus subtilis (strain 168)), P80244; purified B. subtilis ClpP, FRET peptide cleavage, 20 min; Potency, µM (highest dose often 57.5 µM), inactives show at the top dose activity change, negative = active; actives 1.9% (n = 340,000); active = well fitted falling curve with a large enough effect; inconclusive = small, poorly fitted or top-dose-only effect; inactive = no such curve, though single readings can be large or run the other way; note: potency is the fitted concentration of half-maximal effect; the source files actives as falling curves though it sought activators and does not explain the sign; nearly all actives have a fitted effect of over 65% in size; many hits overshoot -100%
Target sequence (P80244 whole entry, looked up): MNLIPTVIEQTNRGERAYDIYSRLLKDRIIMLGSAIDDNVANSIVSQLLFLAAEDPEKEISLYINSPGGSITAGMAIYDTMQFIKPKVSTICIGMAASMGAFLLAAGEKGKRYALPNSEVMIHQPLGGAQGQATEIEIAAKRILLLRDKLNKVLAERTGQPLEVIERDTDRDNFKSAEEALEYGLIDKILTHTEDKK
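Buffer: 100 mM Tris/HCl pH8, 100 mM KCl, 0.05% low protease BSA, 2.5% glycerol, 0.01% Tween-20. ClpP 10 microg/mL final; 20 min RT; delta FRET normalized to ADEP and DMSO controls.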
TRPV1 PAM: enhances activation of the human vanilloid receptor TRPV1; Q8NER1; TRPV1-expressing cells, Fluo-8 calcium influx, capsaicin EC20 potentiation; host cell line not named in the record; control for the full effect not named in the record; potentiation, % at 8.33 µM; actives 0.02% (n = 320,000); AID 540277; active means potentiation above 80%; inconclusive means 30% to 80%; inactive means below 30%; note: 0% is about no effect
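TRPV1-expressing cells were cultured overnight at 35.5C and loaded with Fluo-8 calcium dye for 40 to 90 min at room temperature. After a 10 s baseline, compound was added and calcium influx was read kinetically for 3 min (ex 480/em 520 nm).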
D2 potentiator: potentiates the human D2 dopamine receptor allosterically; P14416; DiscoveRx D2 beta-arrestin cells, luminescence, 90 min; 100% = 57 uM dopamine signal; actives 0.23% (n = 360,000); potentiation, % (concentration not given with the values); active = potentiation of 50% or more; inconclusive = 30% to 50%; inactive = 30% or less;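 note: compound concentration not given in the record; tested on top of an EC20 dose of dopamine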
Target sequence (P14416 whole entry, looked up): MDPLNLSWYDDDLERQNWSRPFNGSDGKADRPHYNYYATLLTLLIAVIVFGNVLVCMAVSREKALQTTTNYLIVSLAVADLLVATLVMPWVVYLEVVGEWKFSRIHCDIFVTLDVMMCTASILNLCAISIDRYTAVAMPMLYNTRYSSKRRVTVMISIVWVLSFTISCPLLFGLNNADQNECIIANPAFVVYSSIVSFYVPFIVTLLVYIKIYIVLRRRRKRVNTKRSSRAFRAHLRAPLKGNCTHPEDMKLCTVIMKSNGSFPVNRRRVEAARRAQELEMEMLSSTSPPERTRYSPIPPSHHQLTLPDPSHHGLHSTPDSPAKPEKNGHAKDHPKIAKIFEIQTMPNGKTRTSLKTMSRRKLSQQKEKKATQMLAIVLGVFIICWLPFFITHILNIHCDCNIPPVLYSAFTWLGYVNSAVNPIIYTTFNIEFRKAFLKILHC
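PathHunter D2 cells, attached overnight at 37 deg C, received compound in DMSO plus dopamine at EC20 (50 nM final) for 90 min at 37 deg C. Beta-arrestin recruitment was read as luminescence after 1 h with detection reagent at ambient temperature.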
gsp agonist: activates gsp, the McCune-Albright syndrome mutation; Potency, µM (highest dose often 76.9 µM), for inactives: at the highest dose activation (cAMP increase), hits mostly activators; gsp mutant cells, cAMP HTRF, 30 min; control for the full effect not named in the record; actives 0.13% (n = 340,000); active = well fitted activation curve with a large enough effect; inconclusive = small, poorly fitted or top-dose-only effect, or another doubt; inactive = no such curve, though single readings can be large or run the other way; cell line not stated here;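 note: phosphodiesterase inhibitor Ro 20-1724 added with compounds to block cAMP breakdown; potency is the fitted concentration of half-maximal effect; nearly all actives have a fitted effect of over 60% in size; about a fifth of the inactives were tested at one dose only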
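Cells in DMEM/10% FBS with G418 were pretreated with compounds in DMSO plus […] (300 uM stock) for 30 min at 37C. cAMP was measured by HTRF (cAMP-d2 plus anti-cAMP antibody-K) after 30 min at room temperature.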
Menin MLL FP FL: menin-MLL binding inhibition, fluorescein peptide | Fluorescence polarization, fluorescein-MLL peptide displacement from menin | FP activity change, % at 61.4 µM | 290,000 tested, under 10 active | AID 1766; inconclusive = falling polarisation curve, or a change in total fluorescence; inactive = total fluorescence flat and polarisation flat or rising; no compound was filed as active; the % refers to the polarisation; negative = inhibition;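 note: % of control where 0% means no effect; inhibitors lower the polarisation; unlabelled MLL peptide was the positive control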
gsp antagonist: antagonists of gsp mutant (McCune-Albright syndrome) | gsp-mutant cells, cAMP HTRF, 30 min; control for the full effect not named in the record | Potency, µM (titrated, usually from 76.9 µM), for the others: at the highest dose activity change, negative = inhibition, most hits filed as inhibitors | actives 0.4% (n = 340,000) | AID 624288; active = falling curve of any shape with a large fitted effect; inconclusive = falling curve, mostly with a smaller effect; inactive = flat or rising curve; cell line not stated here;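 note: intracellular cAMP measured with PDE inhibitor Ro 20-1724 present during compound exposure; potency is the fitted concentration of half-maximal effect; % is set by controls: 0 for no effect and ±100 for the full control effect; nearly all actives have a fitted effect of over 65% in size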
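HTRF cAMP read-out (cAMP-d2 plus anti-cAMP antibody-K in lysis buffer, 30 min RT). Before lysis, cells are exposed to compounds with […] for 30 min at 37C in DPBS containing Ca/Mg, BSA and Tween 20.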
Sfp inh: blocks B. subtilis Sfp PPTase activity. Q9F4F7. Biochemical Sfp PPTase activity, qHTS. Potency, µM, for the others: max response, negative = inhibition, actives largely listed as inhibitors. actives 3.5% (n = 310,000). AID 1490; active = well fitted inhibition curve with a large enough effect; inconclusive = small, poorly fitted or top-dose-only effect, or another doubt; inactive = no such curve, though single readings can be large or run the other way;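 note: the enzyme is Sfp with the accession as filed and its product quenches rhodamine fluorescence; potency is the fitted concentration of half-maximal effect; 0% = enzyme reaction without inhibitor and -100% = no enzyme wells; top concentration of the series not given in the record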
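Buffer: 50 mM Hepes-Na pH 7.6, 10 mM MgCl2, 0.01% Nonidet P-40, 0.01% BSA. Enzyme 15 nM, pre-exposed to compound 15 min; substrates then added and fluorescence change tracked over 30 min.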
Starred values were filed as active, the others as inactive; ? = inconclusive; / = not tested or not shown; & = joins results of further samples; [ ] = dose if it differs, or a comment.

SMILES	ClpP mod	TRPV1 PAM	D2 potentiator	gsp agonist	Menin MLL FP FL	gsp antagonist	Sfp inh
CCCN1C2=NCCCN2c2ccccc21	0.1%	-5	-9	5%	-0.4	-2%	13%
NC(=O)CC[C@H](NC(=O)OCc1ccccc1)C(=O)OCc1ccc(Cl)cc1	-1.3%	-1	-8	-13%	-1.3	-6%	6%
COc1ccccc1C1(CC(=O)Nc2nccs2)CCOC(C(C)C)C1 (stereo unspecified)	-3.0%	-9	-2	-33%	0.5	-17%	3%
COc1ccc(OCCSc2nnc(-c3ccoc3C)n2C)cc1	-4.9%	4	-25	-10%	1.5	-9%[15.4 µM]	3%
Cc1ccc(NC(=S)N(CCN2CCOCC2)Cc2ccccc2F)cc1Cl	-3.4%	-2	0	-21%[15.4 µM]	1.4	-3%	2%
C=CCNS(=O)(=O)c1cc2c3c(c1)CCN3C(=O)CC2	-0.9%	-3	-1	-12%	-4.0	0%	12%
CCCN1Cc2cccc(C(=O)NC(CC(=O)OCC)c3ccc(OCC)c(OC)c3)c2C1=O (stereo unspecified)	/	5	0	11%	-2.6	6%	11%
COc1ccc(-c2cc(NCCc3ccncc3)n3ncnc3n2)cc1	32µM*	-5	-5	25%	-0.3	0%	11%
O=C(NC(Cc1ccccc1)C(=O)O)/C(=C/c1ccc(Cl)cc1)NC(=O)c1ccco1 (stereo unspecified)	/	3	1	-54%[inhibitor]	0.8	0%	30%[activator]
CC(C)C(NC(=O)C1CCC(C(C)(C)C)CC1)C(=O)NCCc1ccc(S(N)(=O)=O)cc1 (stereo unspecified)	0.8%	-32	-1	-29%	-13	7%	-2%
O=C(CN1C(=O)S/C(=C\C=C\c2ccccc2)C1=O)N1CCOCC1	/	-1	-7	-14%[15.4 µM]	8.5	-2%	-1%
Cc1nc([N+](=O)[O-])c(NCCCO)n1Cc1ccccc1	/	-11	-1	7%[15.4 µM]	-1.8	3%	10%
CC1CCN(C(=O)C2COc3ccccc3O2)CC1 (stereo unspecified)	-1.2%	-10	-4	-44%[inhibitor]	/	5%	/
Cc1ccnc(NS(=O)(=O)c2ccc(N)cc2)n1	2.2%	3	2	/	-0.4	0%	10%&18%&28%
CCc1cc(CNC(=O)C2CCC(=O)N(Cc3ccc(Cl)cc3)C2)on1 (stereo unspecified)	-2.4%	-1	-11	-10%	-6.2	12%	2%
COc1ccccc1-n1c(CNC(=O)c2ccco2)nnc1SCC(=O)Nc1nccs1	-2.6%	?	-7	-31%[inhibitor]	5.4	-6%	6%
N#CCCn1c(Cl)nc2ccccc21	-0.2%	2	-8	1%	4.2	-1%	16%
NNC(=S)Nc1ccc(Cl)cc1	-1.5%	?	-30	10%[15.4 µM]	-2.1	-4%	0%
COCCNC(=O)/C(C#N)=C/c1c(N2CCN(c3ccccc3)CC2)nc2c(C)cccn2c1=O	/	-12	-1	?	1.0	-11%	-6%
NC(=O)C1CCN(CC(=O)Nc2cc(S(=O)(=O)N3CCOCC3)ccc2N2CCCC2)CC1	-4.1%	3	-7	30%	/	2%	/
CC(=O)Nc1ccc(N2CCC(C)CC2)c([N+](=O)[O-])c1	/	-16	-12	-37%[inhibitor]	-0.9	1%	14%
Clc1ccc(CN2CCC(c3ccccc3)CC2)cc1	-1.2%	-4	-55	20%	1.9	1%	15%
Cc1ccc(/C=C2\Oc3c(ccc(O)c3CN3CCN(C)CC3)C2=O)cc1	1.4%	-1	-8	39%	?	-3%	0%
C[C@H]1CN=C(Nc2ccccc2)N1CC1CCCCC1	-1.7%	-10	-16	-2%	-0.9	-4%	16%
COc1cc(C(=O)Nc2ncccc2C)ccc1OCC(=O)N1CCOCC1	-7.8%	-1	-4	-8%	/	3%	/
Cc1cc(C)c2nc(-n3nc(C)cc3N)cc(C)c2c1	/	-1	-10	-8%[15.4 µM]	3.1	0%	10%
O=C(O)c1cccc2cc(-c3ccccc3)oc(=O)c12	3.6%	15	2	9%	3.9	-3%	11%
CCCN(Cc1nnc(-c2cccs2)o1)C(=O)c1cccc(S(=O)(=O)N2CCOCC2)c1	-0.7%	-1	-12	-17%	/	-6%	/
CC(=O)Nc1ccc(C(=O)N2CCN(C(=O)c3ccco3)CC2)cc1	0.8%	17	-5	0%	-1.0	6%	-20%
COc1ccc(C(=O)N=c2c(C#N)cc3c(=O)n4cccc(C)c4nc3n2Cc2ccco2)cc1	/	-8	/	/	?	/	56µM*
O=[N+]([O-])c1ccc(N2CCN(CC(O)COc3ccccc3)CC2)cc1 (stereo unspecified)	0.8%	15	-8	-7%	3.7	-11%	-9%
O=C1CC(Cc2ccccc2)C(=O)N1CCCn1ccnc1 (stereo unspecified)	/	-2	/	/	2.0	/	?
CCOC(=O)CNC(=O)c1ccc(C)cc1	-2.2%	1	-4	9%	3.8	10%	-4%
Cc1ccc(OCC(=O)NC2CCSc3ccccc32)cc1 (stereo unspecified)	-0.1%	1	-33	7%[15.4 µM]	/	-9%	/
CCCCN(C)CCNC(=O)CCn1nc(-c2ccc(C)cc2)ccc1=O	-22%	-4	-9	11%[15.4 µM]	-0.9	21%	14%
CC(C)c1ccc(C2/C(=C(\O)c3ccc4c(c3)OCCO4)C(=O)C(=O)N2CCN2CCOCC2)cc1 (stereo unspecified)	-3.8%	3	-11	?	-0.8	3%	-9%
Cc1cc(C)c(NC(=O)CCCSc2nnc(N)s2)c(C)c1	-0.3%	-10	-3	-18%	1.1	2%	14%
O=C(CCCn1c(=S)[nH]c2cc3c(cc2c1=O)OCO3)N1CCN(c2ccccc2)CC1	0.4%	4	-17	0%	2.2	21%	17%
CCC(C(=O)OCC(=O)Nc1c(Cl)cc(Cl)cc1Cl)c1ccccc1 (stereo unspecified)	1.0%	-4	-7	-65%[inhibitor]	-3.3	-5%	-20%
COc1ccc(Nc2nc(NN)nc(C)c2[N+](=O)[O-])cc1	/	-5	-1	-6%[15.4 µM]	0.6	/	2%
O=C1NC[C@@H](Cc2cccc3ccccc23)N(CCc2cc(C(F)(F)F)cc(C(F)(F)F)c2)C1=O	-0.2%	-2	-6	/	2.3	-8%	4%
COc1ccc(NC(=O)Nc2cccc3c2O[C@@H](CN(C)CC2CCCCC2)[C@@H](C)CN([C@H](C)CO)C3=O)cc1	-0.7%	/	-14	-1%	/	-3%	/
O=c1c2c3c(sc2n2c(=S)[nH]nc2n1-c1ccccc1)CCC3	/	-1	-7	6%[15.4 µM]	-1.5	-12%	-20%
CSc1nc(C)cc(-n2cc(F)c(=O)[nH]c2=O)n1	-1.8%	6	7	?	-2.3	-7%	5%
COc1ccc(NC(=O)CCSc2ccc(C)cc2)cc1S(=O)(=O)Nc1ccccc1Cl	-2.2%	0	-11	-13%	10	-5%	15%

An excerpt from above, reduced to Sfp inh, D2 potentiator and Menin MLL FP FL:
| canonical_smiles | Sfp inh | D2 potentiator | Menin MLL FP FL |
| --- | --- | --- | --- |
| CC(C)c1ccc(C2/C(=C(\O)c3ccc4c(c3)OCCO4)C(=O)C(=O)N2CCN2CCOCC2)cc1 (stereo unspecified) | -9% | -11 | -0.8 |
| Cc1cc(C)c(NC(=O)CCCSc2nnc(N)s2)c(C)c1 | 14% | -3 | 1.1 |

(more compounds)
SMILES	ClpP mod	TRPV1 PAM	D2 potentiator	gsp agonist	Menin MLL FP FL	gsp antagonist	Sfp inh
COc1ccc(OC)c(Nc2ncnc3sc(-c4ccccc4)cc23)c1	?	8	-10	12%	0.1	?	-7%
COc1cccc(/C=N/NC(=O)c2cnccn2)c1OC	/	10	-13	17%[15.4 µM]	2.5	5%	3%
CC(=O)C1=C(O)C(=Cc2ccccc2)OC1=O	4.2%	/	-9	?	/	/	/
CCc1cccc2c(SCC(=O)NCC3CCCO3)nc(-c3ccc(F)cc3)nc12 (stereo unspecified)	-1.0%	1	2	-2%	6.3	2%	8%
CN(C(=O)c1cnccn1)c1nnc(-c2cnccn2)s1	9.8%	5	-8	-13%	-4.8	15%	30%[activator]
COc1ccc(OC)c(CN2CCCC(CO)C2)c1 (stereo unspecified)	-2.4%	2	1	-57%[inhibitor]	-0.4	8%	0%
CC1CN(C(=O)CCC(=O)NCc2ccc(F)cc2)c2ccccc2S1 (stereo unspecified)	0.0%	-15	-1	-47%[inhibitor]	2.3	2%	15%
CC1CCC(NC(=O)CN2C(=O)COc3ccc(S(=O)(=O)N4CCCC4)cc32)CC1 (stereo unspecified)	/	-2	/	/	-2.1	/	5%
COC(=O)CSc1cc([N+](=O)[O-])cc2c1c(C1OCCO1)nn2-c1ccccc1	1.5%	1	-3	6%[15.4 µM]	1.5	-5%	20%
N#Cc1ccc(OCC(=O)N/N=C/C2CC=CCC2)cc1 (stereo unspecified)	-1.1%	5	-4	0%	-4.4	2%	19%
Cc1ccc(C(=O)N[C@H](C(=O)OCC(=O)c2ccc[nH]2)C(C)C)cc1	-8.5%	15	-9	26%	15	-1%	17%
COc1ccccc1Nc1nc(NCC2CCCO2)c2ccccc2n1 (stereo unspecified)	/	18	-18	10%[15.4 µM]	2.2	-21%	-2%
COc1ccc(N2CCN(c3oc(COc4ccccc4)nc3C#N)CC2)cc1	-3.5%	7	-5	-15%	2.0	-5%	14%
C=CCn1c(=S)[nH]c2cc(C(=O)Nc3ccc(F)cc3)ccc2c1=O	-0.5%	3	-9	2%[15.4 µM]	-1.6	?	1%
Nc1nsc2ccccc12	32µM*	27	-36	-22%	-9.6	-2%	?
COc1ccc2c(=O)c(-c3nc(C)cs3)coc2c1	-6.7%	-9	1	-39%[inhibitor]	2.2	10%	20%
Cc1nn(C)c(Cl)c1S(=O)(=O)N1CCC(CO)(CCc2ccccc2)CC1	-1.9%	7	-3	10%[15.4 µM]	-1.1	-3%	6%
O=C(N/N=C\c1ccc(F)cc1)c1csnn1	-1.6%	29	-26	4%	1.5	7%	1.4µM*
CCO[C@H]1OC(C(=O)NCc2nc3ccccc3[nH]2)=C[C@@H](c2ccc(Br)cc2)[C@@H]1CCCO	-1.4%	/	-4	-4%	/	-13%	/
O=C(O)c1ccccc1-c1ccccc1C(=O)Nc1cccc(O)c1	/	0	9	7%[15.4 µM]	-3.4	/	15%
CCCCCN(C(=O)CN(C)Cc1ccc(OC)cc1OC)c1c(N)n(CCCC)c(=O)[nH]c1=O	-1.2%	8	-27	-3%	7.0	-8%	23%

Compounds were not picked by outcome. Share with any hit: about 5.1%.
